TRPML1 inh – inhibitors of human TRPML1 channel. activity change, negative = inhibition, % (test concentration not listed). Q9GZU1. 390,000 compounds, 0.02% hits. AID 624415. TRPML1-inducible cells, Ca2+ dye fluorescence, FDSS; stronger effect = lower value; inhibition of EC80 agonist-evoked calcium signal; in the data active means activity change below about -50%; inconclusive means about -30% to -50%; inactive means above about -30%;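 further: stimulus is agonist 54-4 at its EC80 concentration; on the % scale 0 is the no-effect control and ±100 the full control effect; compound concentration not given in the record; the text of the record puts the active cut at -80%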
Target sequence (Q9GZU1 whole entry, looked up): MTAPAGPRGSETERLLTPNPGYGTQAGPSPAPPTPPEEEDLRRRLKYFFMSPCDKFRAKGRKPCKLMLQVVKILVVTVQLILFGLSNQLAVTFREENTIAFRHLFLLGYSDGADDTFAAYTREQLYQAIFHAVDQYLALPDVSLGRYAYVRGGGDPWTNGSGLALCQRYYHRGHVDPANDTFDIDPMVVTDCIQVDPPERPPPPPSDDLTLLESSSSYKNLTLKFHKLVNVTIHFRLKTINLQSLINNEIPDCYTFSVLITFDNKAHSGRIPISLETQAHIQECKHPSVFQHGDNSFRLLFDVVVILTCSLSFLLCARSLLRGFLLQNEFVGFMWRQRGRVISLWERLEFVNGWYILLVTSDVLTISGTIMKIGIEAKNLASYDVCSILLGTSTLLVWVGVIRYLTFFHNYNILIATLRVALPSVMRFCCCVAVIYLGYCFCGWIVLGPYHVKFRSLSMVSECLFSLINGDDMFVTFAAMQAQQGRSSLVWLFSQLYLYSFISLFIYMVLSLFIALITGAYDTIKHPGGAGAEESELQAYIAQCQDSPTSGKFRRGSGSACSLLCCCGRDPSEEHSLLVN
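Tet-induced TRPML1-DL cells loaded with Ca8 no-wash calcium dye were read kinetically on FDSS. Compound addition was followed by EC80 agonist 54-4 (4 uM final); inhibition was read over 110 s.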
Six1-Eya2 blk – blocks human Six1 binding to Eya2 | Q15475+O00167 | AlphaScreen GST-Six1/His-Eya2 binding, biochemical; stronger effect = lower value; control for the full effect not named in the record | activity change, % (concentration not given with the values) | 360,000 compounds, 0.56% hits; in the data active = activity change below about -65%; inconclusive = about -30% to -65%; inactive = above about -30%; further: on the % scale 0 is the no-effect control and ±100 the full control effect
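Homogeneous AlphaScreen proximity assay pairing GST-Six1 with His-tagged Eya2 (added as 5X mix: 250 nM and 500 nM) in 50 mM Tris pH 8.0, 300 mM NaCl, 1 mM TCEP. Glutathione donor and nickel acceptor beads; 1 h, 37 °C, dark.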
CtBP-E1A blk – inhibitors of CtBP/E1A interaction; activity change, % (no concentration beside the values); AlphaScreen GST-E1A/His-CtBP binding, 1536-well; stronger effect = lower value; control for the full effect not named in the record; 340,000 compounds, 0.49% hits; in the data active means activity change below about -65%; inconclusive means about -30% to -65%; inactive means above about -30%; further: on the % scale 0 is the no-effect control and ±100 the full control effect
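Homogeneous bead-based format: GST-tagged E1A captured on glutathione donor beads, His-tagged CtBP on nickel acceptor beads; compounds precede bead addition by 2 h at 37 °C.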
TRPV1 potentiator – human TRPV1 potentiation; potentiation, % at 8.33 µM; AID 540277; TRPV1-expressing cells, Fluo-8 calcium influx, capsaicin EC20 potentiation; host cell line not named in the record; control for the full effect not named in the record; 320,000 compounds, 0.02% hits; active means potentiation above 80%; inconclusive means 30% to 80%; inactive means below 30%; further: 0% is about no effect
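TRPV1-expressing cells were cultured overnight at 35.5C and loaded with Fluo-8 calcium dye for 40 to 90 min at room temperature. After a 10 s baseline, compound was added and calcium influx was read kinetically for 3 min (ex 480/em 520 nm).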
D2 potentiator – positive allosteric modulators of human D2 dopamine receptor; P14416; DiscoveRx D2 beta-arrestin cells, luminescence, 90 min; 100% = 57 uM dopamine signal; potentiation, % (no concentration beside the values); 360,000 compounds, 0.23% hits; AID 624464; active = potentiation of 50% or more; inconclusive = 30% to 50%; inactive = 30% or less;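 further: compound concentration not given in the record; tested on top of an EC20 dose of dopamine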
Target sequence (P14416 whole entry, looked up): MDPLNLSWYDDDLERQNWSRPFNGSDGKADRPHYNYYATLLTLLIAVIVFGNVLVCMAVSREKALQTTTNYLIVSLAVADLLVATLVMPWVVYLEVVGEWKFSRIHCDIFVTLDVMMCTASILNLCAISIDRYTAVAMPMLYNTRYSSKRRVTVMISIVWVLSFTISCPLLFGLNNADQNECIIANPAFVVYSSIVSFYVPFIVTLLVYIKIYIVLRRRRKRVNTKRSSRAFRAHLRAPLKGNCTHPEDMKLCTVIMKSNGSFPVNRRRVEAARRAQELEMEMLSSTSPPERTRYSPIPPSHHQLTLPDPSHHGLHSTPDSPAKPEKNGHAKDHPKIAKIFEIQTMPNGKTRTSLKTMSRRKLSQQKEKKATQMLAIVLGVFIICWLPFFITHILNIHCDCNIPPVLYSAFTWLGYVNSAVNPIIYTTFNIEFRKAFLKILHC
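D2 cells co-treated with compound plus 50 nM dopamine (EC20) for 90 min at 37 deg C to detect potentiation. Beta-arrestin recruitment was read as enzyme-fragment luminescence after 1 h at ambient temperature. Full response was set by 57 uM dopamine.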
TRPML1 agonist – human mucolipin-1 channel agonism | Q9GZU1 | TRPML1-expressing cells, Ca2+ dye fluorescence, FDSS; host cell line not named in the record; reference of the full effect not given here | activation, % (no concentration beside the values) | 410,000 compounds, 0.12% hits; in the data active = activation above about 50%; inconclusive = about 30% to 50%; inactive = below about 30%; further: 0% is about no effect; the text of the record puts the active cut at 80%
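In this qHTS format, compounds were pin-transferred onto Ca8-dye-loaded TRPML1-DL cells induced with Tet overnight, and intracellular Ca2+ fluorescence was recorded kinetically for 110 s after a 10 s baseline. A subsequent 4uM final 54-4 (EC80) addition followed by a second 110 s read served as the antagonist phase.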
Active calls of the source: *; ? = inconclusive; . = not tested or not shown.

SMILES | TRPML1 inh | Six1-Eya2 blk | CtBP-E1A blk | TRPV1 potentiator | D2 potentiator | TRPML1 agonist
CC(=O)NC1CCCC(NC(C)=O)C1 (configuration not stated) | 8 | 7 | 7 | . | -4 | -0.3
COc1ccc(Cc2noc(-c3ccc([N+](=O)[O-])cc3)n2)cc1OC | 3 | -3 | . | -5 | 18 | 1.9
O=S(=O)(c1ccc(Cl)cc1)N1CCNCC1 | -13 | 1 | . | 2 | -10 | 0.9
O=C(NCc1cccs1)c1ccc(Cl)c(S(=O)(=O)N2CCOCC2)c1 | -12 | -7 | -2 | . | -4 | -1.0
Cc1cc(C)n(-c2nnc(C)n2N)n1 | -5 | 12 | 6 | -1 | 3 | -0.3
O=C(Nc1ccc(F)cc1)Nc1nnc(COc2ccccc2F)s1 | 13 | 1 | 6 | 24 | 2 | 0.0
Cc1nc(NC(=O)COC(=O)CNC(=O)c2ccco2)c(Cl)cc1Cl | 19 | 6 | 8 | . | -15 | 0.1
CCOC(=O)N1CCN(C(=O)CS(=O)(=O)c2cn(Cc3ccc(F)cc3)c3ccccc23)CC1 | 1 | 0 | 1 | -7 | 3 | 0.0
CCc1cc(C(=O)OC)c(NC(=O)c2ccoc2C)s1 | 24 | -4 | 3 | -7 | -3 | 2.1
Cc1cc(C(=O)N2CCCCCC2)cs1 | -4 | -2 | 5 | 4 | -7 | 0.3
Cc1cc(NC(=O)CSc2ncccn2)no1 | -1 | -7 | 5 | 8 | -15 | 0.9
O=C(CCCOc1ccccc1)Nc1ccncc1 | 14 | 5 | -4 | 0 | -6 | -0.3
COc1ccc(-n2c(SCC(=O)C(C)(C)C)nc3ccsc3c2=O)cc1 | -5 | -9 | 1 | -8 | -1 | 0.6
CC1CC(=O)c2cnc(N)nc2C1 (configuration not stated) | -6 | -1 | 1 | 5 | 3 | -0.9
CN1CC(=O)Nc2ccc([N+](=O)[O-])cc2C1=O | -7 | -13 | -12 | 2 | -2 | 0.0
O=C1CSC(=S)N1N=Cc1c(F)cccc1Cl | 0 | -22 | -6 | . | -11 | 0.1
O=C(COC(=O)c1ccc(Cl)c(S(=O)(=O)N2CCOCC2)c1)NCc1ccco1 | 6 | 3 | 1 | 17 | -63 | 0.2
O=C(c1ccncc1)N1CCN(S(=O)(=O)c2ccc(OC(F)(F)F)cc2)CC1 | -23 | 5 | -1 | . | -3 | 0.4
CCOC(=O)C(NC(C)=O)(N1CCc2ccccc2C1)C(F)(F)F (configuration not stated) | -9 | -1 | 13 | -2 | -5 | 0.2
O=c1cc2c(nn1Cc1ccc(F)cc1)-c1ccccc1CC2 | 0 | 4 | -20 | 0 | -9 | 2.4
CCOC(=O)c1sc(Nc2nc3c(F)cccc3s2)cc1C | -3 | -4 | 2 | -13 | -18 | 1.6
CCCc1cc(-c2[nH]ncc2-c2ccc(C(=O)OCC)o2)c(O)cc1O | 24 | -14 | 1 | -6 | 14 | 1.3
O=C(c1ccco1)N1N=C(c2ccncc2)CC1(O)C(F)(F)F (configuration not stated) | 10 | 3 | -1 | 4 | 4 | 0.0
CSCC[C@H](NC(=O)CCn1nnc2ccccc2c1=O)C(=O)O | -3 | 2 | 0 | -29 | -2 | -0.3
Cc1cc(C)c(C(=O)COC(=O)c2ccc(NC(=O)CC#N)cc2)cc1C | 13 | -7 | -4 | 22 | -1 | 1.0
CC1=NCCN1S(=O)(=O)c1cccc([N+](=O)[O-])c1 | -17 | 8 | 6 | 5 | 2 | -0.1
S=c1[nH]c(-c2ccc(Br)cc2)cn1CCc1ccccc1 | 8 | 6 | -2 | 13 | 3 | 2.6
O=C(NCCc1ccccc1C(F)(F)F)c1cc(COc2ccccc2)on1 | 3 | 11 | 9 | . | -6 | -0.1
CCOC(=O)N1CCN(c2nc3ccccn3c(=O)c2C=O)CC1 | 4 | 8 | -2 | 18 | 9 | -0.5
Cc1cc(=O)n2[nH]c(N)c(N=Nc3ccccc3)c2n1 | -8 | -23 | 11 | 3 | -25 | -0.5
COc1cccc(NC(=O)CSc2nc3c(oc4ccccc43)c(=O)[nH]2)c1 | 7 | 2 | 29 | 9 | 15 | 1.3
CCn1cc(C(=O)OCC(=O)OC2CC(C)CCC2C(C)C)c(=O)c2ccc(C)nc21 (configuration not stated) | -3 | -12 | -15 | 5 | 6 | 1.5
Cc1ccc(S(=O)(=O)N(CC(O)CN2CCCCC2)c2cccc([N+](=O)[O-])c2)cc1 (configuration not stated) | 36 | -2 | -11 | 3 | -2 | 0.6
O=C(COc1ccc(Oc2ccccc2)cc1)NCc1cn2ccccc2n1 | -5 | -2 | 16 | ? | -6 | 0.1
Cc1cc(C)cc(OCC(=O)Nc2ccc(S(=O)(=O)Nc3ccccn3)cc2)c1 | 3 | -8 | 0 | 12 | -6 | 1.0
CC(=O)c1c(C)[nH]c(C(=O)Nc2ccccn2)c1C | -16 | -8 | -9 | -25 | 7 | -0.4
CCn1c(C)nc2cc(S(=O)(=O)N3CCCCC3)ccc21 | 33 | 0 | -1 | -4 | -2 | 1.0
Cc1ccc(NC(=O)Cc2nc(CN(C)CC(=O)Nc3ccc(C)cc3)cs2)cc1 | 7 | 0 | -3 | -4 | 0 | 0.8
O=C(NCc1cccc(Br)c1)C1CC(c2ccccc2[N+](=O)[O-])=NO1 (configuration not stated) | 11 | 0 | -19 | . | -6 | -1.0
CSc1ccccc1C(=O)C1CCCN(C(=O)NC(C)C)C1 (configuration not stated) | -11 | 5 | -2 | 10 | 0 | 0.4
COc1ccccc1-c1nc(C(=O)NCC2CCCO2)cc2c1[nH]c1ccccc12 (configuration not stated) | -10 | -2 | 4 | -23 | -8 | 0.1
COc1ccc(S(=O)(=O)N(CC(=O)N2CCN(C)CC2)c2ccc(C)cc2)cc1Br | 4 | 1 | -3 | -12 | -22 | -0.5
O=C(c1cc2nc(-c3ccco3)cc(C(F)(F)F)n2n1)N1CCN(c2ccccn2)CC1 | -7 | -5 | -2 | -31 | 6 | -0.8
C#CCOCCOCCOCCNc1nc(N2CCOCC2)nc(N2CCN(C(=O)[C@H](CCCCN)n3cc([C@@H](N)CO)nn3)CC2)n1 | -11 | 0 | 0 | -5 | -19 | -0.7
CC(C)C[C@H](NC(=O)C1(c2ccccc2)CCN(C(=O)OC(C)(C)C)CC1)C(=O)N1CCC[C@H]1C(=O)O | 6 | 5 | . | 10 | -6 | 0.4

Sorted by heavy-atom count (smallest number first): 5 of the compounds above
SMILES | TRPML1 inh | Six1-Eya2 blk | CtBP-E1A blk | TRPV1 potentiator | D2 potentiator | TRPML1 agonist
CSc1ccccc1C(=O)C1CCCN(C(=O)NC(C)C)C1 (configuration not stated) | -11 | 5 | -2 | 10 | 0 | 0.4
O=C(NCc1cccc(Br)c1)C1CC(c2ccccc2[N+](=O)[O-])=NO1 (configuration not stated) | 11 | 0 | -19 | . | -6 | -1.0
Cc1cc(C)cc(OCC(=O)Nc2ccc(S(=O)(=O)Nc3ccccn3)cc2)c1 | 3 | -8 | 0 | 12 | -6 | 1.0
COc1ccc(S(=O)(=O)N(CC(=O)N2CCN(C)CC2)c2ccc(C)cc2)cc1Br | 4 | 1 | -3 | -12 | -22 | -0.5
O=C(c1cc2nc(-c3ccco3)cc(C(F)(F)F)n2n1)N1CCN(c2ccccn2)CC1 | -7 | -5 | -2 | -31 | 6 | -0.8

(cont.)
SMILES | TRPML1 inh | Six1-Eya2 blk | CtBP-E1A blk | TRPV1 potentiator | D2 potentiator | TRPML1 agonist
Cc1sc(NC(=O)c2ccco2)c(CN2CCN(Cc3ccccc3)CC2)c1C | 6 | -18 | -16 | -1 | -17 | 1.6
O=c1[nH]c(-c2cccs2)nc2ccccc12 | -13 | -10 | -10 | 5 | -9 | 0.1
COc1ccc(CN(CCCN2CCOCC2)C(=O)Nc2cccc(Cl)c2)cc1OC | -13 | -11 | -5 | -13 | -30 | -0.3
Cc1cccc(NC(=O)CCCNC(=O)c2ccc(Cl)cc2)n1 | 13 | 1 | -5 | -3 | -12 | -0.5
O=C(CCCN1C(=O)/C(=C/c2cccc(Br)c2)SC1=S)NCCCN1CCOCC1 | 31 | -3 | -4 | 6 | 1 | 0.1
Cc1ccc(S(=O)(=O)N(CC(O)CN(C)C)c2ccccc2)cc1 (configuration not stated) | -6 | 0 | 2 | -2 | -28 | -0.3
Cc1ccc2c(Cl)cc(Cl)c(OCC(=O)OCC(=O)Nc3ccc(C#N)cc3)c2n1 | -17 | 3 | 4 | 0 | -10 | -0.2
C=CCn1c(SCC(=O)Nc2cccc(S(N)(=O)=O)c2)nc2sc(C)c(C)c2c1=O | 19 | -2 | -4 | . | 3 | 3.6
O=C(Nc1cccc(NC(=O)c2ccccc2Cl)c1)c1ccco1 | -1 | -1 | -1 | 8 | 7 | 0.0
Cc1cccc(C(=O)N2CCN(Cc3ccc4c(c3)OCO4)CC2)c1 | 1 | -4 | -21 | . | -7 | -0.4
COc1cc(NC(=O)C2=C(C)OCCS2)c(Cl)cc1C(=O)NCCCN1CCCC(C)C1 (configuration not stated) | 10 | -5 | 2 | . | -18 | 1.4
COc1ccc(S(=O)(=O)NC2CCCC2)c(Cl)c1Cl | -17 | 7 | 8 | -4 | -5 | 1.1
COc1ccc(NC(=S)NC(C)C(c2ccccc2)N2CCOCC2)cc1 (configuration not stated) | 20 | -11 | -14 | 5 | 3 | 1.7
O=C(Nc1nncs1)C1CC(=O)N(C2CCCC2)C1 (configuration not stated) | -16 | 3 | -16 | -2 | -6 | -0.1
CN(C(=O)c1cccc(NC(=O)Cc2ccc(NC(=O)C3CCN(C(=O)C4CCCCC4)CC3)cc2)c1)C1CCCC1 | 10 | 7 | -1 | . | 7 | 2.7
Cc1ccc(OCC(=O)Nc2ccc(C)c(S(=O)(=O)N3CCCCCC3)c2)c([N+](=O)[O-])n1 | 3 | -22 | -15 | 2 | 4 | 1.4
Cc1cccc(Nc2nc(N3CCCCC3)nc(N3CCCCC3)n2)c1 | -3 | -6 | -18 | 2 | -2 | 0.0
Cc1noc(C)c1Cc1ccc(O)cc1 | -5 | 5 | 1 | 6 | -19 | 0.0
COc1ccc(NC(=O)c2ccc(Cc3ccc(C)cc3)o2)cc1 | 15 | 2 | 0 | -7 | -1 | 2.4
COc1cc(CNc2ccc(N3CCN(C(C)=O)CC3)cc2)ccc1OCc1ccc(F)cc1 | 26 | ? | ? | -6 | 21 | 1.1
COc1ccc(CCN(C)Cc2nc(Cc3ccc(OC)c(OC)c3)no2)cc1OC | 11 | -1 | -8 | -4 | -8 | -0.3
COc1ccc(Cl)cc1C(=O)NNC(=O)CCNC(=O)c1ccccc1 | -8 | 5 | -5 | . | -14 | -0.8
O=C(COC(=O)c1cnccn1)N=c1sccn1Cc1ccccc1Cl | -12 | -6 | 1 | 13 | -7 | 0.2
COc1ccc2nc(NC(=O)c3cccc(OCc4c(C)noc4C)c3)sc2c1 | 24 | -8 | 3 | -4 | 24 | 0.4
C=CCNc1nc(C(=O)OCC(=O)Nc2c(Cl)cccc2C(F)(F)F)cs1 | 10 | 12 | -21 | -10 | -1 | -0.1
CCOc1ccccc1NC(=O)c1cccc(S(=O)(=O)N(Cc2ccccc2)c2ccccc2OC)c1 | 11 | -2 | -17 | -3 | -6 | 0.5

From PubChem
